HSV replic up: enhancers of HSV replication in host cells, fold increase, host cell viability; HSV replication augmentation in cells; maximum fold increase; hit rate 0.005% among 220,000; AID 1956, 2009;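 active means peak rise of 1.5-fold or more in the series; inconclusive means self-fluorescent or not available for retest; tested in PC3 cells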;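 further: first round at 10 µM; read as green reporter fluorescence; hits show the peak of a series up to 25 µM; 1 = signal of infected wells without compound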
Insulin prom inh: inhibitors of insulin promoter-driven GFP, primary screen, imaging, TRM-6 cells (human fetal islet line), eGFP reporter, cell count | hit rate 0.9% among 130,000 | reporter expression induced with tamoxifen | inhibition, % at 2 µM;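 active means inhibition above the mean plus 3 SD, with well images judged a real hit on visual review, cut at about 60% in these data, passing the limit was not always enough; inconclusive means inhibition over the cutoff but images rejected on review; inactive means inhibition not above the cutoff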
RGS16-Gao: modulators of RGS16 binding to Galphao, primary screen, biochemical, human proteins, multiplexed bead flow cytometry; bead-based flow cytometry RGS16-Galphao binding, fluorescence; actives lie on both sides; binding response (% of control), % at 10 µM; AID 1441, 2008; Regulator of G-protein signaling 16 (Homo sapiens) + Guanine nucleotide-binding protein …; hit rate 0.38% among 220,000;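 active means below 25% or above 175%, edge rows of some plates excepted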;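 further: Galphao activated by GDP with aluminum fluoride before binding; 100% = wells without compound and 0% = beads without RGS; some results beyond the cut were filed as inactive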
GALR2 ag: GALR2 receptor agonists, primary screen, cell-based; Galanin receptor type 2 (Homo sapiens), O43603; GALR2-expressing cells, agonist activation read-out; activation, %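 (tested at 5 µM)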; hit rate 0.48% among 140,000;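 active means above mean plus 3 SD of all compounds, about 5% in these data, not always enough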;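 further: 0% = vehicle buffer wells and 100% = reference agonist at full effect; tested in CHO reporter cells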
PKD1 inh: inhibitors of human PKD1 kinase, biochemical, fluorescence polarization; hit rate 0.056% among 200,000; AID 797, 2007; inhibition, %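 (about 10 µM by stock and volumes)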; PKD1 kinase fluorescence polarization assay; Serine/threonine-protein kinase D1 (Homo sapiens), Q15139;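 active means inhibition of 50% or more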;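 further: controls were vehicle for no effect and a reference inhibitor for full effect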
Target sequence (Q15139 whole entry, looked up): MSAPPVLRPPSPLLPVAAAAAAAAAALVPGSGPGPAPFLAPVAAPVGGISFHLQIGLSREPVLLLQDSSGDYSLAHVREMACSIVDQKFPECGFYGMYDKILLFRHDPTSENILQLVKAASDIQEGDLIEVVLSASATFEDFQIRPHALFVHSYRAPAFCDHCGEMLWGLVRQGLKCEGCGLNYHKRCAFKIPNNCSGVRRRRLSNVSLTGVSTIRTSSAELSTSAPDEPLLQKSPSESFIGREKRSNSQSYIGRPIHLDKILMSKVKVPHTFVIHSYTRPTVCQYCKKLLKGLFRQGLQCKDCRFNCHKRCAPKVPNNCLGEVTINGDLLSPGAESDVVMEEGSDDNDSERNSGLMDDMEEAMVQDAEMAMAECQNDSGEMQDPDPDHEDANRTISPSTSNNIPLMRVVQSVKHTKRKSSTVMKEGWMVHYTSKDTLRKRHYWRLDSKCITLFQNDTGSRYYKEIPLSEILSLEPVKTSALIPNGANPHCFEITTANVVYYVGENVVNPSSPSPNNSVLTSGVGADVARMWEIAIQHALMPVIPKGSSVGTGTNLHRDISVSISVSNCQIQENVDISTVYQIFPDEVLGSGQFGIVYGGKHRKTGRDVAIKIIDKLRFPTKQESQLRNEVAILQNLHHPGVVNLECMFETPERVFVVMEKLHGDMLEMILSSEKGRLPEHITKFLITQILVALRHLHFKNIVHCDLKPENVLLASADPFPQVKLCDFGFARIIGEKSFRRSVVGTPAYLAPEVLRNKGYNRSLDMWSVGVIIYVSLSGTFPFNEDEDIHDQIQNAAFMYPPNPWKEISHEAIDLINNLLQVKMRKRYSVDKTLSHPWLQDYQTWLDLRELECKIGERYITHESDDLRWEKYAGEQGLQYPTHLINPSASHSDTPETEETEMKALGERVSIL
Insulin prom inh cell count: further read-out of Insulin prom inh, marked with its call; normalized cell count, %; measured here: cell count, toxicity; reference of the scale not given here;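 cells exposed to compound for 48 h; stained nuclei by imaging scaled within each plate; lower means fewer cells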
HSV replic up primary fold: second read-out of HSV replic up, no call of its own (marks repeat the call); fold increase; compound at 10 µM; measured here: primary screen fold increase 10 uM; tested in PC3 cells;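 GFP signal in the first replicate; 1 = infected wells without compound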
* = called active by the depositor; & = joins results of further samples.

What do the screens show for `Cc1cccc(-c2nc3ccccc3c(=O)n2NC(=O)c2cccnc2Cl)c1`?
HSV replic up: inactive; Insulin prom inh: 31; RGS16-Gao: 96; GALR2 ag: -0.1; PKD1 inh: -9; Insulin prom inh cell count: 91; HSV replic up primary fold: 1.1

How did COc1cccc(-c2nn(-c3ccccc3)cc2CNC(C)Cn2cncn2)c1 (stereo unspecified) do in these assays?
HSV replic up: inactive; RGS16-Gao: 105; PKD1 inh: 2; HSV replic up primary fold: 1.5

Results for COc1cc(CN2CCN(C(=O)CC(C)C)CC2)cc(OC)c1OC ?
HSV replic up: inactive; Insulin prom inh: 3; RGS16-Gao: 124; GALR2 ag: -2.0; PKD1 inh: -3; Insulin prom inh cell count: 100; HSV replic up primary fold: 1

Results for CCOC(=O)NC1CCS(=O)(=O)C1 (stereo unspecified) ?
HSV replic up: inactive; RGS16-Gao: 131; GALR2 ag: 0.2; PKD1 inh: 5; HSV replic up primary fold: 0.84

What do the screens show for `O=C(Nc1nc2ccccc2[nH]1)c1ccccc1`?
HSV replic up: inactive; Insulin prom inh: -22; RGS16-Gao: 103; GALR2 ag: -0.5; PKD1 inh: -6; Insulin prom inh cell count: 75; HSV replic up primary fold: 1

What do the screens show for `CN(Cc1ccccc1)CC(O)COc1ccc(CNCc2ccc(Cl)s2)cc1` (stereo unspecified)?
HSV replic up: inactive; RGS16-Gao: -437; PKD1 inh: -5; HSV replic up primary fold: 0.82

Results for Cc1ccc(CSc2nnc(-c3cccnc3)n2N)cc1 ?
HSV replic up: inactive; Insulin prom inh: -11; RGS16-Gao: 100; GALR2 ag: -2.0; PKD1 inh: -9; Insulin prom inh cell count: 112; HSV replic up primary fold: 0.8

How did COc1ccc(NS(=O)(=O)c2ccc(NC(=O)C(C)(C(F)(F)F)C(F)(F)F)cc2)nn1 do in these assays?
HSV replic up: inactive; Insulin prom inh: -11; RGS16-Gao: 98; GALR2 ag: -2.2; PKD1 inh: -10; Insulin prom inh cell count: 156; HSV replic up primary fold: 0.99

What do the screens show for `CC(=O)OC1COC(n2ccc3ccccc32)C(OC(C)=O)C1OC(C)=O` (stereo unspecified)?
HSV replic up: inactive; Insulin prom inh: 26; RGS16-Gao: 92; GALR2 ag: -0.1; PKD1 inh: -2; Insulin prom inh cell count: 73; HSV replic up primary fold: 0.85

How did O=C(CN1C(=O)NC2(CCCCCCC2)C1=O)N1CCOCC1 do in these assays?
HSV replic up: inactive; RGS16-Gao: 101; GALR2 ag: -1.1; PKD1 inh: 0; HSV replic up primary fold: 1

What do the screens show for `CCOC(=O)C1CCCN(C(=O)CN2C(=O)C(CC)Oc3ccc(C)cc32)C1` (stereo unspecified)?
HSV replic up: inactive; RGS16-Gao: 110; GALR2 ag: -0.5; PKD1 inh: 1; HSV replic up primary fold: 0.9

What do the screens show for `O=C(Nc1ccc2c(c1)OCCO2)c1cccc(S(=O)(=O)N2CCCCC2)c1`?
HSV replic up: inactive; Insulin prom inh: -30; RGS16-Gao: 97; GALR2 ag: -5.2; PKD1 inh: 5; Insulin prom inh cell count: 128; HSV replic up primary fold: 0.9

How did CCn1c(SCC(=O)Nc2cc(C)on2)nc2c(c1=O)SC(C)C2 (stereo unspecified) do in these assays?
HSV replic up: inactive; Insulin prom inh: 50; RGS16-Gao: 108; GALR2 ag: 0.2; PKD1 inh: 5; Insulin prom inh cell count: 145; HSV replic up primary fold: 0.83

What do the screens show for `Cc1nnc(Oc2ccccc2F)c2ccccc12`?
HSV replic up: inactive; RGS16-Gao: 96; GALR2 ag: -1.2; PKD1 inh: -7; HSV replic up primary fold: 0.79

What do the screens show for `O=C1c2ccccc2-c2ncnc3c(N4CCOCC4)cc(N4CCOCC4)c1c23`?
HSV replic up: inconclusive; RGS16-Gao: 200; GALR2 ag: 1.4; PKD1 inh: -7

Results for NS(=O)(=O)c1cc2c(cc1Cl)NC(Cc1ccccc1)NS2(=O)=O (stereo unspecified) ?
HSV replic up: inactive; RGS16-Gao: 98; HSV replic up primary fold: 0.89

Results for CC(N)C12CC3CC(CC(C3)C1)C2 (stereo unspecified) ?
HSV replic up: inactive; Insulin prom inh: -13; RGS16-Gao: 106&111; PKD1 inh: -5; Insulin prom inh cell count: 95; HSV replic up primary fold: 0.89&0.85

What do the screens show for `CCCCc1nnc(NC(=O)C2CCCO2)s1` (stereo unspecified)?
HSV replic up: inactive; RGS16-Gao: 100; GALR2 ag: -2.8; PKD1 inh: 4; HSV replic up primary fold: 0.66

How did Cc1ccc(S(=O)(=O)N/N=C/c2cn(C)nc2C)cc1 do in these assays?
HSV replic up: inactive; Insulin prom inh: -20; RGS16-Gao: 101; GALR2 ag: -1.9; PKD1 inh: 4; Insulin prom inh cell count: 69; HSV replic up primary fold: 0.82

What do the screens show for `CCn1c(C)nc2cc(C(=O)NNC(=S)Nc3ccc(Cl)cc3Cl)ccc21`?
HSV replic up: inactive; RGS16-Gao: 53; GALR2 ag: -1.1; PKD1 inh: -11; HSV replic up primary fold: 0.94

Filtered by structure, those above containing an aryl thioether with sulfur outside any ring
Results for Cc1ccc(CSc2nnc(-c3cccnc3)n2N)cc1 ?
HSV replic up: inactive; Insulin prom inh: -11; RGS16-Gao: 100; GALR2 ag: -2.0; PKD1 inh: -9; Insulin prom inh cell count: 112; HSV replic up primary fold: 0.8

How did CCn1c(SCC(=O)Nc2cc(C)on2)nc2c(c1=O)SC(C)C2 (stereo unspecified) do in these assays?
HSV replic up: inactive; Insulin prom inh: 50; RGS16-Gao: 108; GALR2 ag: 0.2; PKD1 inh: 5; Insulin prom inh cell count: 145; HSV replic up primary fold: 0.83

At a glance, some entries already given.
What do the screens show for `Cc1cccc(-c2nc3ccccc3c(=O)n2NC(=O)c2cccnc2Cl)c1`?
HSV replic up: inactive; Insulin prom inh: 31; RGS16-Gao: 96; GALR2 ag: -0.1; PKD1 inh: -9; Insulin prom inh cell count: 91; HSV replic up primary fold: 1.1

How did COc1cccc(-c2nn(-c3ccccc3)cc2CNC(C)Cn2cncn2)c1 (stereo unspecified) do in these assays?
HSV replic up: inactive; RGS16-Gao: 105; PKD1 inh: 2; HSV replic up primary fold: 1.5

Carrying on:
What do the screens show for `CCc1nc2sc(C(=O)O)c(N)c2c2c1CCCC2`?
HSV replic up: inactive; RGS16-Gao: 100; HSV replic up primary fold: 0.94

How did Cc1nn2c(NCc3ccccn3)c3c(nc2c1-c1ccccc1)CCC3 do in these assays?
HSV replic up: inactive; RGS16-Gao: 100; HSV replic up primary fold: 0.66

How did CN(C1CCCCC1)S(=O)(=O)c1ccc(NC(=O)CCC(=O)O)cc1 do in these assays?
HSV replic up: inactive; Insulin prom inh: 69; RGS16-Gao: 103; GALR2 ag: -2.6; PKD1 inh: -4; Insulin prom inh cell count: 74; HSV replic up primary fold: 0.89

How did CN(C)S(=O)(=O)c1ccc(NC(=O)COC(=O)Cn2[nH]c(=O)c3ccccc3c2=O)cc1 do in these assays?
HSV replic up: inactive; RGS16-Gao: 102; HSV replic up primary fold: 0.93

How did CCCCCC(=O)Nc1ccc(Cl)cn1 do in these assays?
HSV replic up: inactive; RGS16-Gao: 104; GALR2 ag: -0.2; PKD1 inh: 2; HSV replic up primary fold: 1

How did CCOc1cc(NC(=S)NCCCN2CCOCC2)c(OCC)cc1NC(=O)c1ccc(OC)cc1 do in these assays?
HSV replic up: inactive; RGS16-Gao: 101; PKD1 inh: -3; HSV replic up primary fold: 0.91

How did O=C(c1c(F)cccc1F)N(Cc1ccccn1)C1CCCC1 do in these assays?
HSV replic up: inactive; Insulin prom inh: -32; RGS16-Gao: 110; GALR2 ag: -0.8; PKD1 inh: 5; Insulin prom inh cell count: 118; HSV replic up primary fold: 1.1

How did Cc1ccc(C(=O)O)cc1S(=O)(=O)N1CCSCC1 do in these assays?
HSV replic up: inactive; RGS16-Gao: 99; GALR2 ag: -3.5; PKD1 inh: -4; HSV replic up primary fold: 0.88

How did O=C(N/N=C/c1ccc(-c2ccccc2C(=O)O)o1)c1cccs1 do in these assays?
HSV replic up: inactive; Insulin prom inh: 19; RGS16-Gao: 100; GALR2 ag: 0.6; PKD1 inh: 10; Insulin prom inh cell count: 145; HSV replic up primary fold: 1

What do the screens show for `CN(C1CCCCC1)S(=O)(=O)c1ccc(NC(=O)C2CCCCC2)cc1`?
HSV replic up: inactive; Insulin prom inh: 11; RGS16-Gao: 98; GALR2 ag: -1.8; PKD1 inh: -4; Insulin prom inh cell count: 143; HSV replic up primary fold: 0.94

What do the screens show for `O=C(c1cccs1)N1CCN(c2ccc(F)cc2)CC1`?
HSV replic up: inactive; Insulin prom inh: 7; RGS16-Gao: 99; GALR2 ag: -2.3; PKD1 inh: 1; Insulin prom inh cell count: 131; HSV replic up primary fold: 0.97

Results for N#Cc1c(-c2ccco2)cc(-c2ccc(F)cc2)nc1N ?
HSV replic up: inactive; RGS16-Gao: 101; GALR2 ag: 0.7; PKD1 inh: -4; HSV replic up primary fold: 0.97

Results for COc1cccc(C(=O)Nc2cnc(NC(=O)c3ccco3)cc2C)c1 ?
HSV replic up: inactive; Insulin prom inh: 6; RGS16-Gao: 37; GALR2 ag: -2.6; PKD1 inh: -1; Insulin prom inh cell count: 82; HSV replic up primary fold: 0.86

How did FC(F)(F)c1cc(C(F)(F)F)c2ccc(N/N=C/c3ccccc3)nc2n1 do in these assays?
HSV replic up: inactive; RGS16-Gao: 102; GALR2 ag: -3.2; PKD1 inh: 13; HSV replic up primary fold: 0.93

Results for COc1ccc(-n2cnnc2SC(C)C(=O)Nc2cccc([N+](=O)[O-])c2)cc1 (stereo unspecified) ?
HSV replic up: inactive; RGS16-Gao: 112; GALR2 ag: -1.1; PKD1 inh: 8; HSV replic up primary fold: 1.1

What do the screens show for `COc1ccc(-c2cc(C(F)F)n3ncc(C(=O)NCC4CCCO4)c3n2)cc1` (stereo unspecified)?
HSV replic up: inactive; Insulin prom inh: -13; RGS16-Gao: 99; GALR2 ag: -3.4; PKD1 inh: -18; Insulin prom inh cell count: 82; HSV replic up primary fold: 0.86

What do the screens show for `O=C(/C=C/c1ccco1)Nc1ccc(Oc2ccc(Cl)cc2)cc1`?
HSV replic up: inactive; Insulin prom inh: 0; RGS16-Gao: 100; GALR2 ag: -0.9; PKD1 inh: -14; Insulin prom inh cell count: 130; HSV replic up primary fold: 0.9

What do the screens show for `CCN(CC)S(=O)(=O)c1ccc(N2CCOCC2)c(NS(=O)(=O)c2ccc(OC)cc2)c1`?
HSV replic up: inactive; RGS16-Gao: 86; HSV replic up primary fold: 1.2

How did O=S(=O)(NCc1ccccn1)c1ccc2c(c1)OCCO2 do in these assays?
HSV replic up: inactive; Insulin prom inh: -18; RGS16-Gao: 97; GALR2 ag: -0.8; PKD1 inh: -1; Insulin prom inh cell count: 56; HSV replic up primary fold: 1

Results for CCOC(=O)CSc1nc2c(sc(=S)n2CCc2ccccc2)c(=O)n1Cc1ccco1 ?
HSV replic up: inactive; Insulin prom inh: 14; RGS16-Gao: 92; GALR2 ag: 0.1; PKD1 inh: -9; Insulin prom inh cell count: 72; HSV replic up primary fold: 0.94

What do the screens show for `CCOC(=O)c1c(C)c(C(=O)NCc2ccc3c(c2)OCO3)c(C)n1C`?
HSV replic up: inactive; Insulin prom inh: 11; RGS16-Gao: 109; GALR2 ag: -0.5; PKD1 inh: -8; Insulin prom inh cell count: 114; HSV replic up primary fold: 0.97

Results for CC(C)C[C@H]1C(=O)N2CCC[C@H]2[C@]2(O)O[C@](NC(=O)[C@@H]3C=C4c5cccc6[nH]c(Br)c(c56)CC4N(C)C3)(C(C)C)C(=O)N12 (stereo partly specified) ?
HSV replic up: inactive; Insulin prom inh: -5; RGS16-Gao: 99; GALR2 ag: 1.4; PKD1 inh: -4; Insulin prom inh cell count: 141; HSV replic up primary fold: 0.7

What do the screens show for `CCn1c(=O)c(=O)n(CC)c2cc(S(=O)(=O)N3CCc4ccccc43)ccc21`?
HSV replic up: inactive; RGS16-Gao: 103; GALR2 ag: 0.2; PKD1 inh: -12; HSV replic up primary fold: 1.1

Results for Clc1ccc(C2CC(c3ccco3)n3ncnc3N2)cc1Cl (stereo unspecified) ?
HSV replic up: inactive; Insulin prom inh: 33; RGS16-Gao: 103; GALR2 ag: -0.4; PKD1 inh: -11; Insulin prom inh cell count: 185; HSV replic up primary fold: 1.1

How did COc1ccc(OC)c(C2N(c3ccccn3)C(=O)C3CCCN32)c1 (stereo unspecified) do in these assays?
HSV replic up: inactive; RGS16-Gao: 100; GALR2 ag: -0.2; PKD1 inh: -1; HSV replic up primary fold: 1

Screening data (PubChem BioAssay)
